PINK1 modulator: modulators of PINK1 expression; 410,000 compounds, 0.2% hits; Potency, µM (highest dose often 76.6 µM), without a hit: at the top dose activation (PINK1 increase), usual class: activators; PINK1 immunofluorescence, high-content cytometry, 24 h; active = well fitted activation curve with a large enough effect; inconclusive = small, poorly fitted or top-dose-only effect; inactive = flat fitted curve, though single readings scatter; cell line not stated here;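 note: potency is the fitted concentration of half-maximal effect; % of control where 0% means no effect; nearly all actives have a fitted effect of over 65% in size; a mitochondrial uncoupler was the plate control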
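Cells are seeded, rested 12 hours, then given compound at five concentrations or DMSO for 24 hours. After fixation, blocking and antibody staining, PINK1 amount and mitochondrial localization are scored; CCCP serves as control.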
D2 ag: human D2 receptor agonism in beta-arrestin assay; P14416; DiscoveRx PathHunter D2 beta-arrestin, luminescence, 90 min; 100% = 57 uM dopamine signal; activation, % (concentration not given with the values); 360,000 compounds, 0.084% hits; in the data active = activation above about 40%; inconclusive = about 15% to 40%; inactive = below about 15%; note: the text of the record calls up to 30% inactive
Target sequence (P14416 whole entry, looked up): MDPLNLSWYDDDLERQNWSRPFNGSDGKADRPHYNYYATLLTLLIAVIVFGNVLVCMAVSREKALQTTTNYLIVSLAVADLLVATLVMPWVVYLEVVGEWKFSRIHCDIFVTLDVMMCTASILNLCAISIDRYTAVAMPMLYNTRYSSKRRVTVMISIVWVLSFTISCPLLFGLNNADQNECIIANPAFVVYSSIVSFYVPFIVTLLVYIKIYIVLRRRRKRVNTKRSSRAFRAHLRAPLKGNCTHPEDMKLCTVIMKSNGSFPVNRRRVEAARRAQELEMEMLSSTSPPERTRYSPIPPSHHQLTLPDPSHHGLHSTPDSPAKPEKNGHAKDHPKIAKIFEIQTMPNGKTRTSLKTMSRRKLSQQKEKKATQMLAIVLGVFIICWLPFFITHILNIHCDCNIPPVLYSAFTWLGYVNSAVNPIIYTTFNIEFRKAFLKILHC
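DiscoveRx PathHunter D2 beta-arrestin cells (2,100/well) attached overnight, then compound-stimulated 90 min at 37 C in HBSS/10 mM HEPES/0.1% Tween-20 buffer; beta-galactosidase complementation read by luminescence after 1 h at ambient temperature. Dopamine 57 uM final (EC100) as control.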
TRPML1 agonist: activates the human TRPML1 channel. Q9GZU1. TRPML1-expressing cells, Ca2+ dye fluorescence, FDSS; host cell line not named in the record; reference of the full effect not given here. activation, % (concentration not given with the values). 410,000 compounds, 0.12% hits. AID 624414; in the data active = activation above about 50%; inconclusive = about 30% to 50%; inactive = below about 30%; note: 0% is about no effect; the text of the record puts the active cut at 80%
Target sequence (Q9GZU1 whole entry, looked up): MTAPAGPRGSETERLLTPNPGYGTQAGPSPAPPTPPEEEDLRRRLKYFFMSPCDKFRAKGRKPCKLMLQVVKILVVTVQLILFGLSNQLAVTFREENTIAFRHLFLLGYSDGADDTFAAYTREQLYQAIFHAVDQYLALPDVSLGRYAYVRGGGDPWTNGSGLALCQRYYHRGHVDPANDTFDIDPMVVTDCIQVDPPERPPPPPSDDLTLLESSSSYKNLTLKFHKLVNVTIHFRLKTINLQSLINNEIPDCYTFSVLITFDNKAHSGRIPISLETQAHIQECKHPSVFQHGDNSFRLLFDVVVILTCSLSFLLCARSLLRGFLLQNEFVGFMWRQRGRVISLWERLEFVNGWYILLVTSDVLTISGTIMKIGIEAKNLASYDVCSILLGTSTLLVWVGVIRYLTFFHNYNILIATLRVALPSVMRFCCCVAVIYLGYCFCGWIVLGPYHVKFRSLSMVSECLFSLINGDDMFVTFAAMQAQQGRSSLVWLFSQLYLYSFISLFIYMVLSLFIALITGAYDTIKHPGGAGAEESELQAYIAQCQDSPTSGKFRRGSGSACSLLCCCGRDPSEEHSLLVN
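Kinetic FDSS Ca2+ read in Tet-induced TRPML1-DL cells (ABD Ca8 dye plus quencher, 45-90 min RT loading): baseline, then compound, then 110 s agonist window; EC80 agonist 54-4 at 4uM final added afterwards for a 110 s antagonist window.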
TRPML1 blocker: inhibitors of human TRPML1 channel | TRPML1-inducible cells, Ca2+ dye fluorescence, FDSS; hits give low values; inhibition of EC80 agonist-evoked calcium signal | 390,000 compounds, 0.02% hits | activity change, negative = inhibition, % (test concentration not listed) | Q9GZU1; in the data active means activity change below about -50%; inconclusive means about -30% to -50%; inactive means above about -30%;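 note: stimulus is agonist 54-4 at its EC80 concentration; % is set by controls: 0 for no effect and ±100 for the full control effect; compound concentration not given in the record; the text of the record puts the active cut at -80%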
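TRPML1-DL cells, Tet-induced overnight (~16 h, 37 °C) at 1,500 cells/well, were loaded with Ca8 no-wash dye plus quencher for 45-90 min at room temperature. Compounds were pinned during FDSS kinetic reading; agonist 54-4 at EC80 (4 uM final) then added.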
Six1-Eya2 inh: blocks human Six1 binding to Eya2; activity change, % (test concentration not listed); AlphaScreen GST-Six1/His-Eya2 binding, biochemical; hits give low values; control for the full effect not named in the record; AID 651725; 360,000 compounds, 0.56% hits; Q15475+O00167; in the data active = activity change below about -65%; inconclusive = about -30% to -65%; inactive = above about -30%; note: % is set by controls: 0 for no effect and ±100 for the full control effect
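Homogeneous AlphaScreen proximity assay pairing GST-Six1 with His-tagged Eya2 (added as 5X mix: 250 nM and 500 nM) in 50 mM Tris pH 8.0, 300 mM NaCl, 1 mM TCEP. Glutathione donor and nickel acceptor beads; 1 h, 37 °C, dark.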
CtBP-E1A inh: inhibitors of CtBP/E1A interaction; AlphaScreen GST-E1A/His-CtBP binding, 1536-well; hits give low values; control for the full effect not named in the record; activity change, % (concentration not given with the values); 340,000 compounds, 0.49% hits; AID 651724; in the data active means activity change below about -65%; inconclusive means about -30% to -65%; inactive means above about -30%; note: % is set by controls: 0 for no effect and ±100 for the full control effect
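In 5 uL wells, 23 nL compound meets equimolar GST-E1A and His-CtBP (5X stock 125 nM each) for 2 h, 37 °C. Beads (5X, 50 ug/mL) then 1 h, 37 °C, dark.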
The depositor's hits bear a star; ? = inconclusive; / = not tested or not shown; [ ] = dose if it differs, or a comment. An unsorted share of the library, and some 1% of all compounds hit somewhere here.

SMILES	PINK1 modulator	D2 ag	TRPML1 agonist	TRPML1 blocker	Six1-Eya2 inh	CtBP-E1A inh
CCOc1ccc(NC(=O)C(=O)NCCN2CCN(S(=O)(=O)c3ccc(C)cc3)CC2)cc1	7.9%	-0.6	-0.2	-8.4	8.7	0.0
O=C(C[C@H]1C/C=C\CC[C@H](Cc2ccc(F)cc2)C(=O)O[C@H](c2ccccc2)CNC1=O)N[C@H](CO)Cc1ccccc1	0.1%	5.4	0.0	-12.6	0.1	3.5
Cc1ccc(Nc2nc3c(c(=O)[nH]c(=O)n3C)n2Cc2ccc(F)cc2)cc1	12.9%	-2.4	1.4	23.6	-4.6	-4.3
O=C(CNc1ccccc1)NNC1=NCCC1	0.6%	-1.5	1.6	-21.9	-0.2	-3.6
COc1ccc(CCNC(=O)CN(c2cccc([N+](=O)[O-])c2)S(C)(=O)=O)cc1OC	0.2%	-6.1	1.5	8.1	8.1	/
CCOC(=O)N1CCN(C(=O)CCSc2ccc(C)cc2)CC1	-2.3%	1.8	0.7	-5.8	0.1	0.5
COc1cccc(CCNC(=O)Cn2c(-c3cccs3)cc3ccccc32)c1	6.4%	/	0.7	-5.6	/	/
COc1ccc(-c2cc3c(=O)n(CC(=O)NCCCc4ccccc4)ncn3n2)cc1	2.2%	-5.5	-0.3	-4.8	2.4	6.6
Cc1[nH]n(-c2ccc([N+](=O)[O-])cc2)c(=O)c1C=NCCc1c[nH]c2ccccc12	3.2%	-1.6	-0.1	2.7	-1.9	4.9
Cc1ccc(C2c3c(oc4cc(C)c(C)cc4c3=O)C(=O)N2CCCN2CCOCC2)cc1 (configuration not stated)	-0.5%	-0.1	0.0	-7.6	-1.7	-0.4
CCOC(=O)Cc1nnc(-c2ccccc2)o1	1.3%	-2.7	-0.6	12.3	-1.0	6.3
Cc1ccc(S(=O)(=O)N2CCN(Cc3cccnc3)CC2)cc1	0.4%	-1.5	-0.2	-10.4	5.8	3.9
O=C(Cn1cccc1C(=O)c1ccccc1)NCCN1CCOCC1	-2.2%	-2.0	-1.2	16.3	2.8	7.5
COc1ccc(CCC(=O)NCC23CC4CC(CC(C4)C2)C3)cc1	-1.5%	1.2	0.7	10.7	0.6	5.2
Cc1ccc(S(=O)(=O)N2CCCCC2)cc1NC(=O)CN1C(=O)c2ccccc2S1(=O)=O	2.2%	-0.2	1.0	-0.7	-1.1	5.0
O=C(CSc1nnc(-c2cccnc2)o1)Nc1cccc(Cl)c1	0.0%	-6.7	1.3	-1.1	4.0	0.0
COc1ccc(S(=O)(=O)N/N=C/c2ccc(OCCN3CCOCC3)c(OC)c2)cc1	0.0%	7.4	0.2	7.5	-2.3	-3.0
COc1cccc(NC(=O)CN(C)S(=O)(=O)c2ccc(C)cc2)c1	-1.1%	-0.4	-0.9	12.2	-0.2	7.7
Cc1csc(N(C(=O)c2cccc(S(=O)(=O)N(C)C)c2)c2ccccc2)n1	2.3%[38.3 µM]	0.3	0.0	?	-8.8	-6.8
COCCCNC(=O)/C=C/c1c(Cl)cccc1Cl	2.0%	-1.7	-0.6	-4.8	3.3	20.1
CC(C)c1[nH]nc2c1C(C(C)C)C(C#N)=C(N)O2 (configuration not stated)	3.6%	-1.9	-0.7	8.3	12.3	-3.9
Cc1cc(C)cc(N2C(=O)CSC23C(=O)N(CC(N)=O)c2ccccc23)c1 (configuration not stated)	-5.5%	/	-0.3	1.0	/	/
COc1cccc2c1Oc1ncccc1N(c1ccc(C(=O)NCc3cccc(C)c3)s1)C2	-1.8%	/	0.9	-13.7	/	/
COc1cccc(CSc2nc3n(n2)C(c2cccc(F)c2)C(C(=O)Nc2ccccc2C)=C(C)N3)c1 (configuration not stated)	-0.2%	/	1.4	-6.3	/	/
Cc1ccc(NC(=O)c2cc(-c3cc(C)c(C)cc3O)n[nH]2)cc1C	-0.7%	?	2.1	-25.0	-2.8	-5.9
Cc1ccc(C)c(NC(=O)CSc2ncc3c(n2)-c2ccc(Cl)cc2N(C)S3(=O)=O)c1	1.2%	/	-0.7	-3.8	/	/
O=C(N/N=C/c1ccco1)c1ccc(NC(=O)c2ccccc2Cl)cc1	7.9%	-22.6	0.6	24.7	0.1	-17.8
CC1CCCC(NS(=O)(=O)c2cccc3nsnc23)C1C (configuration not stated)	-0.1%	6.8	0.1	-12.3	3.0	-18.9
CC1=C(C(=O)N2CCOCC2)CC(CC(=O)NCc2cccc3ccccc23)C(=O)N1Cc1ccc(F)cc1 (configuration not stated)	3.4%	-1.2	-0.5	-2.2	-4.6	3.8
Cc1ccc(Cl)cc1NC(=O)CCc1c(C)nc2c3cccnc3nn2c1C	0.2%	/	0.5	4.8	/	/
O=C(CNS(=O)(=O)c1ccc(Cl)cc1)NC1CCCCC1	-0.8%	-0.7	0.0	0.4	2.0	3.2
COC(=O)c1[nH]c2cccc(Cl)c2c1NC(=O)CN1CCCCC1C (configuration not stated)	3.9%[38.3 µM]	-2.0	3.0	21.8	-0.8	22.5
OC1c2cc(Br)ccc2N=C2CCCCCN21 (configuration not stated)	0.3%	1.5	-0.5	-0.3	1.7	4.8
CCOC(=O)C1CCN(c2c(NCCN3CCN(c4ccccc4)CC3)c(=O)c2=O)CC1	0.3%	-4.4	-0.9	21.1	-4.6	2.1
COc1ccc(Cl)cc1NC(=O)c1ccc2c(c1)CCN2S(C)(=O)=O	3.8%	/	1.6	?	/	/
COC(=O)c1ccc(CSc2nc3c(cnn3-c3ccc(C)c(C)c3)c(=O)[nH]2)o1	1.1%	-1.4	0.8	3.5	4.9	5.5
COC(=O)c1cccc(S(=O)(=O)N2CCC(NC(=O)NC34CC5CC(CC(C5)C3)C4)CC2)c1	2.4%	-2.5	0.0	-22.2	2.3	-3.9
c1ccc(-c2ncc3c(ccc4ccccc43)n2)cc1	11.5%	-1.3	-0.4	0.3	1.5	-3.8
CCOC(=O)[C@]12CCCC=C1N(Cc1cccc3ccccc13)C(=O)[C@H](CC(=O)NCc1cccs1)C2	0.7%	/	-0.2	/	-10.7	-3.2
COc1cc([N+](=O)[O-])ccc1NC(=O)c1nc2ccccc2n(C)c1=O	0.4%	/	-0.5	11.1	/	/
Cc1ccc(CCNC(=O)c2cc3c(s2)-c2ccccc2OC3)cc1	3.4%	/	1.4	-4.2	/	/
COc1ccc(CCNC(=O)Cn2nnc(-c3cccs3)n2)cc1OC	/	1.0	-0.5	-4.0	-0.7	8.9
CCN(CC)C(c1ccc(C)cc1)c1nnnn1C1CCCCC1 (configuration not stated)	-0.4%[38.3 µM]	-3.9	-0.4	-11.1	3.7	9.6
CCCOc1ccc(C2c3c(-c4c(C)cc(C)cc4O)n[nH]c3C(=O)N2CCO)cc1 (configuration not stated)	0.5%	/	0.9	17.0	/	/
Cc1sc(NC(=O)c2ccccc2F)c(CN2CCCCC2)c1C	3.4%	-3.7	1.2	10.9	2.7	7.1
CC1(C)NC(=O)N(CCCCOc2ccc3ccccc3c2Cl)C1=O	?	0.3	-1.0	0.9	-0.1	1.0
Nc1n[nH]c2ccccc12	-0.5%	-2.0	-0.2	3.1	3.1	7.1
COc1ccccc1C(=O)NC(=O)COC(=O)CNC(=O)c1ccc(Cl)cc1Cl	-1.2%	-3.2	-0.6	-9.2	4.2	3.5
Cc1ccc(Sc2nc(-c3ccccc3)nnc2C(F)(F)F)cc1	7.1%	-1.2	-0.4	20.2	-1.7	2.3
Cc1ccc(C)c(OCc2nnc(NC(=O)c3ccc4c(c3)OCO4)s2)c1	4.6%	0.1	0.3	-1.2	2.8	0.0
CC(=O)c1ccc(N2CCN(CC(=O)NC(=O)NCc3ccccc3)CC2)cc1	1.4%	-1.8	3.1	17.9	7.4	7.8
c1csc(-c2ccc(N3CCOCC3)nn2)c1	-0.2%	0.6	1.5	15.2	5.6	/
NNc1nc2c(F)cccc2s1	4.8%	-7.3	0.5	11.3	-15.3	-6.0
COc1ccc(NC(=O)c2ccccc2N(Cc2ccccc2)S(C)(=O)=O)c(OC)c1	1.2%	-7.5	0.8	-7.9	-5.6	5.1
CCNc1nc(C)nc2c1oc1ccccc12	?	2.8	0.0	26.9	-8.5	-5.3
O=S(N1CCc2ccccc21)C12CC3CC(CC(C3)C1)C2 (configuration not stated)	2.2%	-1.9	2.3	22.7	0.8	3.0
CCNc1nc(NCC)n2c(SCC(=O)c3ccccc3F)nnc2n1	2.0%	-3.3	0.6	31.5	7.3	10.3
COc1cccc(NC(=O)CSc2nnc(-c3cccs3)o2)c1	0.6%	/	-0.8	9.6	/	/
Cc1cccc(NC(=O)CSc2nnc(-c3ccco3)o2)c1	7.3%	-4.5	2.0	-14.2	10.9	0.3
C/C(=C1/SC(N2CCOCC2)=NC1=O)c1ccc(Cl)cc1	?	-1.3	0.4	-4.9	-0.7	-16.6

The list goes on:
SMILES	PINK1 modulator	D2 ag	TRPML1 agonist	TRPML1 blocker	Six1-Eya2 inh	CtBP-E1A inh
Cc1nc2c3ccccc3[nH]c(=O)n2n1	-3.6%	-3.4	-0.9	3.2	-29.7	-18.5
CC(C)(C)/C=N/NC(=O)C1CC1	-0.7%	-1.3	0.6	-1.7	0.9	/
CC(=O)Nc1cccc(Oc2ccc([N+](=O)[O-])cc2Cl)c1	2.6%	7.6	-0.1	-5.9	-1.3	-2.2
CN(C1CCCCC1)S(=O)(=O)c1ccc2c(c1)c(=O)c(C(=O)N1CCN(c3ccc(F)cc3)CC1)cn2C	1.4%	/	0.2	-21.3	/	/
COc1ccccc1-c1csc(C(C)(O)c2ccccc2)n1 (configuration not stated)	11.1%	-3.1	-0.7	/	8.8	5.8
CCOC(=O)C1=C(c2ccccc2)OC(N)=C(C#N)C1c1cccs1 (configuration not stated)	10.7%[38.3 µM]	0.2	2.3	-7.3	1.4	0.2
Cc1ccc(S(=O)(=O)N2CCN(C(=O)COC(=O)COc3cccc4c3OC(C)(C)C4)CC2)cc1	-4.9%	-6.7	1.8	-14.7	19.9	0.0
CCN(CC)c1ccc(/C=N/NC(=O)CC(C)C)cc1	2.7%	-2.9	-0.2	13.6	-2.0	-7.0
C=C(C)CNC(=S)N/N=C\c1ccc2c(c1)OCO2	-1.4%	2.7	/	/	-1.1	2.9
C[C@@H]1CN([C@H](C)CO)C(=O)c2cc(Br)cnc2O[C@H]1CN(C)Cc1ccccc1	-0.4%	-3.6	/	/	-1.1	-1.7
O=C(CCc1ccccc1)Nc1cccc(S(=O)(=O)N2CCOCC2)c1	1.3%	-1.5	-1.3	1.7	-0.6	/
CN1CCN(S(=O)(=O)c2cccc(C(=O)NCc3ccccc3Cl)c2)CC1	0.6%	0.9	-0.2	25.4	-3.4	-7.0

High-throughput results: PubChem BioAssay, National Center for Advancing Translational Sciences (NCATS)
